VDR inh = Inhibitors of the vitamin D receptor (VDR): qHTS; Vitamin D3 receptor (Homo sapiens), P11473; VDR-SRC2-3 peptide fluorescence polarization, 2 h; Potency, µM, for inactives: max response, negative = inhibition, most hits filed as inhibitors; 400,000 tested, 0.93% active; AID 504847, 2011; active = well fitted inhibition curve with a large enough effect; inconclusive = small, poorly fitted or top-dose-only effect, or another doubt; inactive = no such curve, though single readings can be large or run the other way; note: series mostly up to about 120 µM
Target sequence (P11473 whole entry, looked up): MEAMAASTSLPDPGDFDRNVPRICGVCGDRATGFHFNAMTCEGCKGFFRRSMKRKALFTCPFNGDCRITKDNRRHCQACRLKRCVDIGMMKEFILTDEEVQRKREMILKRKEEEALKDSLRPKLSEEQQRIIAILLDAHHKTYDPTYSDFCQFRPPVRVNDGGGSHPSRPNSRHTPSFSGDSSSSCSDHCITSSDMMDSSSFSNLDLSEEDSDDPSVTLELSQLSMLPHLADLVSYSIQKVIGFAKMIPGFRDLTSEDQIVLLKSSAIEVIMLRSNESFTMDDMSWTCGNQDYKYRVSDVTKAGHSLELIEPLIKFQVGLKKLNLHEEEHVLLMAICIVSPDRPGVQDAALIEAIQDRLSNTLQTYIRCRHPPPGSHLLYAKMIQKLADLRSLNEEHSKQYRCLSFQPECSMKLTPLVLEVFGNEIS
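Reagent solutions, kept cold and dark, are dispensed first; compounds are then pinned in at 23 nl, plates briefly spun, and incubated 2 h at ambient temperature. Inhibition of VDR–SRC2-3 peptide binding is read by fluorescence polarization.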
An asterisk follows results filed as active; u = inconclusive; & = joins results of further samples. % is set by controls: 0 for no effect and ±100 for the full control effect; potency is the fitted concentration of half-maximal effect.

SMILES	VDR inh
CCC1C(=O)NCCN1C(=O)c1ccc2nc(Cc3ccc(OC)cc3)oc2c1 (centres undefined)	-2%
c1ccc(C(=NNc2nc3ccccc3s2)c2ccccn2)cc1	0%
O=C1c2cccc(OCC(=O)N3CCCc4ccccc43)c2CCN1Cc1ccc(F)cc1	-26%
N/C(=N\OC(=O)Cc1cccs1)c1ccc([N+](=O)[O-])cc1	-5%
Nc1nonc1C(=O)NCCNC(=O)c1ccccc1F	6%
NC(=O)CC(NC(=O)c1ccccc1)c1ccc(NC2CCN(Cc3ccccc3)CC2)c([N+](=O)[O-])c1 (centres undefined)	-15%
Cc1ccc(NC(=O)CN(CCc2ccccc2)S(=O)(=O)c2ccccc2)c(C)c1	-3%
Cc1nn(C)c(C(=O)N/N=C/c2ccc(C(F)(F)F)cc2)c1[N+](=O)[O-]	-11%
CCn1c(SCc2cccc(Br)c2)nnc1-c1nonc1NC(C)=O	-5%
CCCCN(CC)CCNC(=O)c1[nH]c(C)c(C(C)=O)c1C	-5%
CCOc1ccc(-n2cc(C(=O)Nc3ccc(Cl)cn3)c3cc(OC)c(OC)cc3c2=O)cc1	9%
Cc1ccc(-n2ccnc(SCC(=O)NCCc3ccccc3)c2=O)cc1F	u

4 entries out of the list above, arranged by their value in VDR inh, falling.
SMILES	VDR inh
CCOc1ccc(-n2cc(C(=O)Nc3ccc(Cl)cn3)c3cc(OC)c(OC)cc3c2=O)cc1	9%
Nc1nonc1C(=O)NCCNC(=O)c1ccccc1F	6%
c1ccc(C(=NNc2nc3ccccc3s2)c2ccccn2)cc1	0%
CCCCN(CC)CCNC(=O)c1[nH]c(C)c(C(C)=O)c1C	-5%

The listing continues:
SMILES	VDR inh
CCOc1ccc2c(c1)C(C)=CC(C)(C)N2C(=O)Nc1ccccc1	u
CCOC(=O)c1cccc(NC(=O)c2cc3c(=O)n(C)c4ccccc4c3n2C)c1	-5%
O=C(c1cc(-c2cccnc2)nc2ccc(Br)cc12)N1CCN(c2ncccn2)CC1	13%
Cn1nc(C(=O)Nc2nc(-c3ccccn3)cs2)c2ccccc2c1=O	u
CS(=O)(=NS(=O)(=O)c1ccc(Cl)cc1)c1ccccc1 (centres undefined)	-13%
Cc1nn(-c2ccccc2)c(C)c1/C=N/NC(=O)c1ccccc1O	-13%
CCCCOC(=O)Nc1ccccc1C(N)=O	8%
O=C(Oc1ccc2c(=O)c(Cl)coc2c1)c1ccncc1	4%
CN(C)/C=N/c1ncc(C(=O)c2ccc(Cl)cc2Cl)s1	-18%
CCCC(=O)C1C(=O)CC(CC(C)SCC)CC1=O (centres undefined)	-5%
COc1ccc(C2c3cccn3CCN2S(=O)(=O)c2ccc([N+](=O)[O-])cc2)cc1 (centres undefined)	13%
CCOC(=O)c1ccc2nc(NC(C)=O)sc2c1	-2%
COCCn1nnnc1SCC(=O)NCc1ccc2c(c1)OCO2	18%
O=C(Nc1ccccc1F)C1CCCC1	0%
COc1cccc(N2CCN(C(=O)CN3CCSc4ccccc43)CC2)c1	8%
O=C(Nc1ccc(Br)cc1)C1CC(c2c(F)cccc2Cl)=NO1 (centres undefined)	-4%
Cc1ccc(C)c(CNC(=O)C2CCN(c3nc4ccccc4nc3C(F)(F)F)CC2)c1	12%
O=C(CCCc1ccccc1)Nc1ccccc1C(F)(F)F	7%
O=C(COC(=O)C1CC(O)CN1S(=O)(=O)c1ccc(Cl)cc1)c1cccc(Cl)c1 (centres undefined)	5%
COc1ccc(NC(=O)CN(C)C(=O)Cc2c(C)nc3ccccc3c2C)cc1	2%
COc1ccccc1CNCC(=O)Nc1ccc(N2CCOCC2)cc1	-9%
COc1ccc(OC)c(C(C(=O)NC2CCCCC2)N(Cc2ccco2)C(=O)c2ccccn2)c1 (centres undefined)	7%
O=C1CSC(=Nc2ccccc2)N1Cc1ccccc1	-9%
COc1ccc(N2C(=O)CSC2c2ccccc2[N+](=O)[O-])cc1 (centres undefined)	-1%
Cc1cccc(C(=O)c2cn[nH]c2-c2ccc(C)cc2O)c1	-22%
COC(=O)c1ccccc1N(C)S(=O)(=O)c1cc2c(cc1C)OCC(=O)N2	8%
Cc1ccc(C)c(NC(=O)c2oc(=O)c3ccccc3c2-c2ccccc2)c1	-22%&1%
CN(Cc1ccc(Cl)c(Cl)c1)C(=O)c1cccc(S(=O)(=O)N2CCN(Cc3ccccc3)CC2)c1	5%
O=C(Nc1cccc(C(=O)O)c1)/C(=C\c1ccccc1)NC(=O)c1ccccc1	7%
CO[C@@H]1CC[C@@]2(C)[C@@H](CC[C@@]3(C)[C@H]2CC=C2[C@H]4CC(C)(C)[C@H](O)[C@@H](OC(C)=O)[C@]4(CO)[C@H](O)C[C@]23C)[C@@]1(C)CO (tested in a mixture with another compound)	-17%
COC(=O)c1ccc(-c2ccco2)n1Cc1ccccc1Cl	0%
S=c1[nH]nc(C2CCCCC2)n1/N=C/c1c(Cl)cccc1Cl	-4%
COc1ccc(C(=O)Nc2cc(C(F)(F)F)ccc2Cl)cc1OC	11%
Cc1cc2c(ncn2C)c(NS(=O)(=O)c2ccccc2Cl)c1C	3%
N#Cc1nc(-c2ccc(OCc3ccccc3)cc2)oc1NCc1cccnc1	9%
CC1CCCCC1NCc1cccc([N+](=O)[O-])c1 (centres undefined)	-13%
COc1ccc(CC(=O)NC2CCSc3ccccc32)c(OC)c1 (centres undefined)	7%
O=c1oc2ccc(NS(=O)(=O)c3cccc4cccnc34)cc2s1	-19%
COc1ccc2oc(C(=O)Nc3nc4ccccc4[nH]3)c(C)c2c1	11%
N#Cc1ccc(C(=O)Nc2ccc(S(=O)(=O)NC3=NCCCCC3)cc2)cc1	-8%
Cc1ccc(C)c(C(=O)CSc2nc(-c3ccccc3)nc3c2CCCC3)c1	-15%
CCN=C1SC(CC(=O)Nc2ccccc2OCC)C(=O)N1CC (centres undefined)	-13%
c1ccc2nc3c(nc2c1)c1ccccc1n3CCN1CCOCC1	7%
COc1ccccc1C(CNC(=O)C1CC(=O)N(Cc2ccc(C)cc2)C1)N1CCCC1 (centres undefined)	-17%
CC(=O)c1cccc(NC(=O)C2CCN(S(=O)(=O)c3ccc4c(c3)CCCN4C(C)=O)CC2)c1	5%
CCNc1c(NS(=O)(=O)c2ccc([N+](=O)[O-])cc2)c(=O)oc2ccccc12	-18%
COc1cccc(N2CC(O)Cn3c2nc2c3c(=O)[nH]c(=O)n2C)c1 (centres undefined)	3%
O=C(CCCN1C(=O)C(c2ccccc2)Oc2cccnc21)Nc1ccccc1C(F)(F)F (centres undefined)	9%
O=S(=O)(c1ccc(Cl)cc1)c1nc(-c2ccco2)oc1N1CCOCC1	0%
COCCNC(=O)C(=O)NNC(=O)CCc1ccccc1	6%
COC1(OC)N=C(N)C2(C#N)C(c3ccccc3)NC(C)=CC12C#N (centres undefined)	7%
N#CCCCC#Cc1ccc2c(c1)COc1c3ccccc3nn1-2	9%
CC1CC(C)CN(C(=O)c2ccc3c(c2)N(Cc2ccccc2)CCS3)C1 (centres undefined)	u
C=C(C)c1cccc(C(C)(C)NC(=O)NCc2ccc(OC)c(OC)c2)c1	-27%
Cc1ccc(N2CN=C(c3ccccc3)NC2=S)cc1	15%
COc1ccc(-c2nc(CS(=O)CC(=O)NCCCN3CC(C)CC(C)C3)c(C)o2)cc1OC (centres undefined)	2%
CCCS(=O)(=O)N1CCN=C1SCc1cccc(F)c1	-12%
COCCN(C(=O)COC(=O)C(C)(C)Oc1ccc(Cl)cc1)c1c(N)n(Cc2ccccc2)c(=O)[nH]c1=O	6%
CCCCn1c(NCc2cc(Cl)ccc2O)nc2ccccc21	18%
C=CCn1c(COc2ccccc2-c2ccccc2)nnc1SCC(=O)NC(=O)NCc1ccco1	7%

(continued)
SMILES	VDR inh
CC1CCC(NC(=O)CCS(=O)(=O)c2ccc3c(c2)NC(=O)CS3)CC1 (centres undefined)	-15%
Cn1cccc1C(=O)N1CCC[C@@]2(CCN(c3cccc(-c4ccccc4)c3)C2)C1	u
Cc1ccc(N2C(S)=C(C#N)C(=O)NC2c2ccco2)cc1 (centres undefined)	40µM*
CCC1C(=O)NCCN1C(=O)CCc1nnc(CCc2ccc(OC)cc2)o1 (centres undefined)	-3%
COc1ccc(-n2c(SCC(=O)NC3CCCCC3)nc3c([nH]c4ccccc43)c2=O)cc1	-12%
Cc1ccc(OCC(=O)Nc2ccc(S(=O)(=O)Nc3cc(C)nc(C)n3)cc2)c(Br)c1	1%
COc1ccc(-c2nc3ccccc3c(=O)n2CCOc2cccc(C)c2C)cc1	3%
Cc1c(C(=O)NCCSCc2cccc(C(F)(F)F)c2)cnn1-c1ccc(Cl)cc1	5%
COc1ccc(OCCCC(=O)N(C)CC(=O)Nc2ccccc2Cl)cc1	-2%
CC1=CC(C)(C)NC(=S)N1NC(=O)c1ccccc1Cl	5%
COc1cc(C2CC(=O)Nc3cc4c(cc32)OCCO4)cc(OC)c1O (centres undefined)	-15%
Cc1ccc(Cl)cc1N1CCN(C(=O)c2cc(S(=O)(=O)N3CCCCCC3)cn2C)CC1	1%
COc1ccc(C(=O)Nc2ccc(N3CCN(C(=O)c4ccccc4)CC3)cc2)cc1[N+](=O)[O-]	-1%
Cc1ccc(C(=O)NCCc2nnc3ccc(SCC(=O)N4CCCCC4)nn23)cc1	-11%
Cc1cc(C)n(C(C)n2nc(C)cc2C)n1	0%
CC1CCN(c2nc3ccccc3n2CC(=O)c2ccccc2)CC1	-4%
CN=C(Nc1cc(Cl)ccc1Cl)SC1CC(=O)N(c2ccc(C(=O)OC)cc2)C1=O (centres undefined)	-1%
CSc1ccc(CCNC(=O)c2cc(C)nn2-c2ccccc2)cc1	7%
COC(=O)c1ccc(N)nc1	12%
COc1ccccc1NC(=O)CSc1nnc(NC(=O)Nc2ccc(C)cc2)s1	4%
Cc1[nH]c2ccc(OC(=O)N3CCOCC3)cc2c1C(=O)OC(C)C	-28%
CC1(C)Cc2noc(N)c2C(C)(C)N1OC(=O)c1cccs1	-25%
CN1CCN(c2ccc3c(c2)C2CC3CCN2C(=O)OCc2ccccc2)CC1 (centres undefined)	-6%
CCOc1cc(/C=C2\SC(N3CCCCC3)=NC2=O)ccc1O	8%

Arranged by heavy-atom count (smallest number first): part of the list above.
SMILES	VDR inh
CCCC(=O)C1C(=O)CC(CC(C)SCC)CC1=O (centres undefined)	-5%
O=C1CSC(=Nc2ccccc2)N1Cc1ccccc1	-9%
COc1ccc(NC(=O)CN(C)C(=O)Cc2c(C)nc3ccccc3c2C)cc1	2%
Cn1cccc1C(=O)N1CCC[C@@]2(CCN(c3cccc(-c4ccccc4)c3)C2)C1	u
CC(=O)c1cccc(NC(=O)C2CCN(S(=O)(=O)c3ccc4c(c3)CCCN4C(C)=O)CC2)c1	5%
COc1ccc(OC)c(C(C(=O)NC2CCCCC2)N(Cc2ccco2)C(=O)c2ccccn2)c1 (centres undefined)	7%

Next part:
SMILES	VDR inh
COc1ccc(NC(C)=O)cc1S(=O)(=O)N1CC=C(c2ccccc2)CC1	6%
COC(=O)c1c(NC(=O)c2ccc(C(C)(C)C)cc2)sc2c1CCC(C)C2 (centres undefined)	-5%
COc1nc(NCc2ccco2)nc(N2CCC(C)CC2)n1	-16%
COCCN1CCN(C(=O)C2CCC(=O)N(Cc3cccc(C(F)(F)F)c3)C2)CC1 (centres undefined)	-8%
O=C(C1CCC(CNc2c(N3CCCCC3)c(=O)c2=O)CC1)N1CCCCC1 (centres undefined)	-1%
Cc1cccc(CNC(=O)c2cc3cc(S(=O)(=O)N4CCCCC4)ccc3n2C)c1	9%
O=S1(=O)N=C(Nc2nncs2)c2ccccc21	-24%
COc1ccc(-c2nnc(N3CCC(C)CC3)c3ccccc23)cc1	-12%
Cc1cc(C(=O)c2cccs2)c(N)s1	u
Cn1c(CN2CCN(c3cccc(Cl)c3)CC2)nc2ccccc21	-11%
O=C(CC1(c2ccc(Cl)cc2)C2CC3CC(C2)CC1C3)NCCO (centres undefined)	-20%
Cc1ccc(C(=O)N/C(=C\c2ccc(-c3cccc([N+](=O)[O-])c3)o2)C(=O)NC(C)(C)C)cc1	-16%

Random excerpt: two records from the list, in no set order.
SMILES	VDR inh
Cc1ccc(OCC(=O)Nc2ccc(S(=O)(=O)Nc3cc(C)nc(C)n3)cc2)c(Br)c1	1%
Cc1ccc(Cl)cc1N1CCN(C(=O)c2cc(S(=O)(=O)N3CCCCCC3)cn2C)CC1	1%

Next part:
SMILES	VDR inh
CCOC(=O)C1CCN(C(=O)c2cn(CCOC)c(=O)c3c2c2ccccc2n3C)CC1	4%
CC(C)c1nnc(NC(=O)CCC2CCCCC2)s1	5%
C/C(=N\NC(=O)OC(C)(C)C)c1ccc(-n2ccnc2)cc1	-4%
O=C(O)c1ccccc1-c1ccc(C(F)(F)F)cc1	5%
O=C1Nc2ccccc2C(=O)N2[C@H](c3ccc(F)cc3)[C@@H]3C(=O)N(Cc4ccccc4)C(=O)[C@@H]3[C@H]12	1%
Fc1ccccc1CN1CCCCCCC1	-6%
Cc1nnc(SCC(=O)Nc2ccc(N3CCOCC3)cc2)n1-c1ccccc1	-6%
Cc1cccc(CSc2nnc(-c3ccco3)n2C)c1	-3%
O=C1C(=O)N(c2ccc(O)cc2)C(c2ccccc2[N+](=O)[O-])/C1=C(\O)c1ccccc1 (centres undefined)	-7%
CC(C)CNS(=O)(=O)c1ccc(CCC(=O)N2CCCC2)cc1	29%
CCOC(=O)C1=C(c2ccccc2)OC(N)=C(C#N)C1c1ccco1 (centres undefined)	9%
Cc1ccc(S(=O)Cc2ccc(C(=O)N3CCN(C(=O)c4ccco4)CC3)o2)cc1 (centres undefined)	9%
COc1ccc(-n2nc3c(c2NC(=O)C(=O)NCc2ccccc2)CSC3)cc1	23%
CN1CC(=O)NC1=NC(=O)c1ccc(Cl)c(S(=O)(=O)N2CCCCCC2)c1	-1%

Records above that bear a hit mark in VDR inh.
SMILES	VDR inh
Cc1ccc(N2C(S)=C(C#N)C(=O)NC2c2ccco2)cc1 (centres undefined)	40µM*

Compound activity as filed in PubChem.

These rows are one share of the data. The share of hits here may be higher or lower than overall.
